Source: PubChem BioAssay
VCAM-1 up = boosters of cytokine-driven VCAM-1 levels – cell-based, plate reader, pooled HUVEC, TNFa stimulus (AID 455). 0.2% of 10,000 active. augmentation, % at 5 µM. HUVEC TNFa-induced VCAM-1 immunofluorescence, plate reader; numbers were filed only for top-ranked candidate wells;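 active means a compound raising TNF-alpha-driven VCAM-1 surface staining, with its hit status upheld on visual or statistical review; inactive means the rest, including hits rejected on review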;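 further: 0% = TNFa with vehicle and 100% = strongest image-checked hit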
Proteasome disasm = blocks ATP-dependent breakdown of the yeast 26S proteasome | 0.2% of 24,000 active | inhibition of disassembly, % (test concentration not listed) | anti-FLAG beads, GFP-proteasome disassembly, flow cytometry;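 active means above 40%; inconclusive means likely self-fluorescent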;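 further: plate controls were ATP control with full disassembly for no effect and ATP-gamma-S intact proteasomes for full effect; higher percent means more bead fluorescence retained so stronger block of disassembly; stock transfer was 100 nL into about 10 µL; wells with too few beads may also be inconclusive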
Starred values were filed as active, the others as inactive; i = inactive; ? = inconclusive; / = not tested or not shown. These rows are one share of the data. The share of hits here may be higher or lower than overall.

SMILES	VCAM-1 up	Proteasome disasm
Cc1nc(N2CCc3ccccc32)[nH]c(=O)c1CCC(C)C	i	-1.0
COc1ccc(OC)c(C2N(c3cc(C)on3)C(=O)C3CCCN32)c1 (stereo unspecified)	/	0.4
Cc1ccc(C)c2[nH]c(=O)c(CCNC(=O)c3ccc(Br)o3)cc12	i	2.1
CCN(C(=O)c1c(-c2ccccc2)noc1C)c1ccccc1	i	2.2
O=C(c1cc(-c2ccccc2O)on1)N1CCc2ccccc2C1	/	-1.5
CC(NC(=O)c1ccc(Cl)cc1)C(=O)N1CCCCC1 (stereo unspecified)	/	-0.6
Cc1cc(C(=O)Nc2c(C)nn(Cc3ccccc3Cl)c2C)no1	/	2.8
COc1cccc(C(=O)Cn2c(=O)n(CC3CCCO3)c(=O)c3ccccc32)c1 (stereo unspecified)	/	1.5
O=C(Nc1ccc(F)cc1)c1cccc2c1C(=O)N(Cc1ccccn1)C2	i	-0.8
COC(=O)c1ccc(C2CC(=O)Nc3cc(OC)c(OC)c(OC)c32)cc1 (stereo unspecified)	i	-1.3
CCOC(=O)N1CCN(C(=O)CSc2cc(C)nc3c(-c4ccccc4OC)c(C)nn23)CC1	i	0.4
O=C(NCc1cccs1)c1csc2c1CCCCC2	/	-0.2
Cc1ccnc(NS(=O)(=O)c2ccc(NC(=O)Cc3cccs3)cc2)n1	i	6.6
CN(C(=O)c1ccccn1)c1nnc(-c2ccncc2)s1	i	0.0
S=c1nc(C2CC2)[nH]c2ccccc12	i	0.2
CC(C)NC(=O)NC(=O)COc1cccc2c1OC(C)(C)C2	i	-1.3
CCCCOC(=O)CSc1nc2c(cc1C#N)C(=O)CC(C)(C)C2	i	-0.2
COc1ccc(Nc2cc(C(=O)NCCCN3CCN(C)CC3)c3ccccc3n2)cc1OC	/	-3.9
O=C1C2CCC(C(O)C2)N1Cc1ccccc1 (stereo unspecified)	/	1.1
Cc1onc(-c2c(Cl)cccc2Cl)c1C(=O)N1CCc2ccccc21	i	2.7

Fetched one by one from the entries so far (two):
SMILES	VCAM-1 up	Proteasome disasm
O=C(Nc1ccc(F)cc1)c1cccc2c1C(=O)N(Cc1ccccn1)C2	i	-0.8
COc1cccc(C(=O)Cn2c(=O)n(CC3CCCO3)c(=O)c3ccccc32)c1 (stereo unspecified)	/	1.5

(listing goes on)
SMILES	VCAM-1 up	Proteasome disasm
Cc1cc(Nc2ccccc2F)n2ncnc2n1	i	-0.3
CCOC(=O)c1ccccc1NC(=O)CSc1nccn1C	i	2.3
CSc1snc(SCC(N)=O)c1C#N	/	-3.4
CCOC(=O)C1CCN(c2c(N3CCCCCC3)c(=O)c2=O)CC1	i	0.6
CCOC(=O)c1sc2ncn(CC(=O)N(CC)CC)c(=O)c2c1C	/	-1.6
O=C(NCCCN1CCN(c2cccc(Cl)c2)CC1)c1nc(-c2ccncc2)no1	/	-1.0
O=C(CN(c1ccc(F)cc1)S(=O)(=O)c1ccc2c(c1)OCCO2)N1CCOCC1	/	-0.2
Cc1nc(-c2ccc(NC(=O)c3cccs3)cc2)cs1	i	-1.6
Cc1cc(/C(=N/O)C(C)(C)NO)ccc1Cl	/	-5.7
CCCn1cc(S(=O)(=O)CC(=O)N2CCc3ccccc32)c2ccccc21	/	-0.1
CCc1nnc(NC(=O)CSc2nnc(CSc3nc(C)cc(C)n3)n2CC)s1	i	-2.0
CC1=C(C(=O)OC2CCCCC2)C(c2cccnc2)n2ncnc2N1 (stereo unspecified)	i	0.6
O=C(CP(=O)(CO)CO)c1ccc(Cl)cc1	i	2.1
COC(=O)CCCC[C@H]1SC[C@H]2NC(=O)N[C@]21O	/	1.2
O=C(Cc1ccccc1)Nc1c2c(nn1-c1cccc(Cl)c1)CS(=O)(=O)C2	/	-0.4
Cc1ccsc1-c1nc(CSCC(=O)NCc2ccc3c(c2)OCO3)c(C)o1	/	38
Cc1nc(NC(=O)c2ccccc2)sc1-c1csc(NCc2ccco2)n1	i	?
O=c1[nH]c(SCc2ccc(F)cc2)nc2c1cnn2-c1ccc(F)cc1	i	0.0
COC(=O)c1ccc(CSc2ncnc3c2oc2ccccc23)o1	/	-0.7
CN1C(=O)NC(c2ccccc2)C2=C1CN(Cc1ccco1)C2=O (stereo unspecified)	/	-0.8
O=C(NCc1ccco1)c1cc(-c2ccccc2)c(N2CCOCC2)s1	/	?
COc1cccc(NS(=O)(=O)c2nc3nc(C)cc(C)n3n2)c1	/	1.7
COc1ccccc1-c1nc(C#N)c(N2CCN(c3ccccc3)CC2)o1	i	-1.6
CCc1cc2c(NCCC(=O)O)nc(C)nc2s1	i	1.7
C=CCn1c(SCC(=O)N2CCN(c3ccc(F)cc3)CC2)nnc1-c1ccco1	/	-1.0
O=C(Cn1ncc2c(=O)oc3ccccc3c21)N1CCN(c2ccccn2)CC1	/	0.3
CN(C)C(=O)N1CCC(C(=O)NCc2ccc(F)cc2Cl)CC1	/	-1.1
CCC(=O)N1CCc2cc(S(=O)(=O)Nc3ccc4c(c3)OCCO4)ccc21	/	-0.3
Cc1cc(C)nc(N(C#N)CC(=O)N2CCC(C(N)=O)CC2)n1	i	-0.2
O=C(O)C1C2CCC(C2)C1C(=O)NCc1ccco1 (stereo unspecified)	/	-0.3
CCc1nnc(NC(=O)CCC(=O)O)s1	/	-0.7
Cc1nc2c(cnn2-c2ccc(Cl)cc2)c(=O)n1-c1ccc2c(c1)OCCO2	/	1.2
COCCn1c(=O)[nH]c2cc(C(=O)NCCCN3CCN(c4ccc(F)cc4)CC3)ccc2c1=O	i	-2.0
CSc1ccc(-c2cc(=O)c3ccccc3o2)cc1	i	0.8
COc1cc(C2Nc3cccc4cccc(c34)N2)cc(OC)c1O	i	-2.5
CCOc1ccccc1NC(=O)C1CCN(S(=O)(=O)c2cccc3cccnc23)CC1	/	-0.7
CCn1cc(C(=O)NC2CCCCCC2)c(=O)c2cc(S(=O)(=O)N3CCCCC3)ccc21	/	-0.5
CC(C)(C)n1nnnc1C(c1cccs1)N1CCN(Cc2ccccc2)CC1 (stereo unspecified)	i	0.2
Cc1cc(C(F)(F)F)nc(SCC(=O)NC2=NC(=O)C(C)S2)n1 (stereo unspecified)	i	-0.9
Nc1nonc1-c1noc(-c2ccc(Br)o2)n1	/	-0.9
O=C(c1ccc2c(c1)OCCO2)N1CCCCC1	i	-1.4
COc1cccc2sc(N(C)c3ccccc3)nc12	/	-1.0
COc1ccc(Cc2nc(-c3ccc(Br)cc3)no2)cc1	i	0.5
Cc1cc(C)cc(NC(=O)c2cc(S(=O)(=O)NCc3ccco3)ccc2F)c1	/	0.2
Cc1ccccc1Cc1c(C)nc2c(C(=O)NCc3ccco3)cnn2c1C	/	0.2
Clc1ccc(Cl)c(-c2nn3c(COc4ccccc4)nnc3s2)c1	i	0.1
COc1ccc(OC)c(-n2cnc3cc(C(=O)O)ccc32)c1	/	-1.9
CC(=O)Nc1ccc(NS(=O)(=O)c2ccc(Cl)c(C(=O)O)c2)cc1	i	0.4
CCCNC(=O)CS(=O)(=O)Cc1nc(-c2cccc(OC)c2)oc1C	i	-0.1
COCCn1c(SCc2csc(-c3ccccc3)n2)nc2ccccc21	i	-1.3
COc1cc(C2CC(=O)c3c([nH]c(C(=O)OCCOC(C)C)c3C)C2)cc(OC)c1OC (stereo unspecified)	/	0.8
O=C1C2CCCN2C(c2ccc(F)cc2)N1c1nccs1 (stereo unspecified)	/	-3.8
CCOC(=O)N1CCC(Nc2c(NCCCOC)c(=O)c2=O)CC1	/	0.3
CCCN(CCC)CCCNS(=O)(=O)c1ccc2c(c1)oc(=O)n2C	i	1.0
Cc1ccc2cc(CN(CC3CCCO3)S(=O)(=O)c3ccc4c(c3)OCCO4)c(=O)[nH]c2c1C (stereo unspecified)	i	2.5
CCC(C)Sc1nnc(Cc2cc(=O)[nH]c(=O)[nH]2)n1-c1ccc(F)cc1 (stereo unspecified)	/	-0.5
CC(C)Cn1c(N)c(C(=O)COC(=O)c2cc(-c3ccco3)nc3ccccc23)c(=O)n(C)c1=O	i	2.0
C=CCn1c(=N)n(CC(O)COc2ccc(OC)cc2)c2ccccc21 (stereo unspecified)	/	2.2
CCOC(=O)CSc1nc2c(sc(=S)n2Cc2ccco2)c(=O)n1-c1ccc(F)cc1	/	-0.2
CCC(Sc1nc2n[nH]c(C)c2c(=N)n1-c1ccc(C)c(Cl)c1)C(=O)N1CCOCC1 (stereo unspecified)	/	-0.8
Other records.
SMILES	VCAM-1 up	Proteasome disasm
CCOC(=O)c1ccc(NC2OC(=O)c3ccccc32)cc1 (stereo unspecified)	i	-1.1
O=C(C1CCCO1)N1CCN(Cc2nc3ccccc3c(=O)[nH]2)CC1 (stereo unspecified)	i	-0.3
CCCc1cc(C(=O)NCc2cccs2)no1	/	0.5
Cn1c(SCC(=O)N2CCOCC2)nnc1-c1cccc(NC(=O)c2ccccc2F)c1	i	-0.5
COc1ccccc1NC1=NC2(CCCC2)N=C(N)N1	i	-0.6
N#Cc1nc(-c2ccco2)oc1N1CCN(c2cccc(Cl)c2)CC1	i	0.2
COC(=O)c1ccc(C(=O)OC)c(NC(=O)c2ocnc2C)c1	/	0.5
CSc1ccccc1NC(=O)c1cnc2n(c1=O)CCS2	i	-1.8
Nc1nc(N2CCCCC2)nc(N(c2ccccc2)c2ccccc2)n1	i	-0.2
C=CCn1c(SCc2nc(N)nc(N(C)C)n2)nnc1-c1cccnc1	/	0.8
COc1ccccc1-c1cc(C(=O)NCCCn2ccnc2)no1	i	-0.8
C=CCOc1nc2c(c(=O)n(C)c(=O)n2C)n1Cc1c(Cl)cccc1Cl	i	-0.8
CCOC(=O)c1c(C)oc2c1c(C=NCc1ccccn1)c(O)c1ccccc12	i	?
COc1ccc(C)cc1NC(=O)c1cc2c(CO)cnc(C)c2oc1=N	/	-0.6
Oc1c(CN2CCOCC2)cc(COCc2ccccc2)c2cccnc12	/	-0.2
CC(=O)NC(CCS(C)(=O)=O)C(=O)Nc1cccc(C(C)=O)c1 (stereo unspecified)	/	-0.4
O=C(CN1C(=O)C2CCCN2c2ncc(Cl)cc21)NCc1ccc2c(c1)OCO2 (stereo unspecified)	/	55*
CC1Cn2c(COc3ccccc3)nnc2S1 (stereo unspecified)	/	-1.6
CCCOc1ccc(N)cc1N	/	4.6
O=C(Nc1ncc(Br)s1)C(Cc1ccccc1)n1cccc1 (stereo unspecified)	/	-2.0

A section from further up, as a working copy:
SMILES	VCAM-1 up	Proteasome disasm
O=C(CN1C(=O)C2CCCN2c2ncc(Cl)cc21)NCc1ccc2c(c1)OCO2 (stereo unspecified)	/	55*
CC1Cn2c(COc3ccccc3)nnc2S1 (stereo unspecified)	/	-1.6
CCCOc1ccc(N)cc1N	/	4.6
O=C(Nc1ncc(Br)s1)C(Cc1ccccc1)n1cccc1 (stereo unspecified)	/	-2.0

New compounds follow:
SMILES	VCAM-1 up	Proteasome disasm
O=C(CCN1C(=O)COc2ccccc21)NCCCN1CCN(c2ccccc2F)CC1	i	-1.9
CSCCC(NC(=O)c1ccco1)C(=O)OC(C)C(=O)NC(=O)NC1CCCCC1 (stereo unspecified)	i	-1.2
CC1CC(C)CN(CCCNC(=O)C2CCC(=O)N2C2CCCC2)C1 (stereo unspecified)	/	-1.3
O=C(NC1CCCC1)C1CC(c2ccc(F)cc2)=NO1 (stereo unspecified)	/	-1.2
O=C1C(C=Nc2ccccc2O)=C(O)c2ccccc21	/	4.4
COc1cc2[nH]c(=S)n(Cc3ccc(C)o3)c(=O)c2cc1OC	/	-0.8
COc1cccc(-c2nc(CS(=O)CC(=O)NCc3ccccc3Cl)c(C)o2)c1 (stereo unspecified)	/	8.6
CCOC(=O)CCn1nc(-c2ccc(Cl)cc2)cc1N	/	0.2
Cc1ccc2cc3cc(C(=O)N4CCN(C(=O)c5ccco5)CC4)sc3nc2c1	/	3.3
CC(=O)Nc1ccc(N2CCN(Cc3ccccc3F)CC2)cc1	i	-1.6
CC(=O)Nc1ccc(OC(=O)c2cccnc2)cc1	i	-0.2
O=C(c1ccc(Cn2c(=O)[nH]c3ccccc3c2=O)cc1)N1CCN(c2ccc(Cl)cc2)CC1	/	3.0
Cc1cc(NC(=O)c2ccc(S(=O)(=O)N3CCOCC3)cc2)nc2c1c(=O)oc1ccccc12	/	1.6
O=C(Cn1ncc2ccccc21)N1CCc2ccccc21	/	-0.4
CCOC(=O)N1CCC(NC(=O)c2cccn3c(=O)c4cc(Br)ccc4nc23)CC1	/	0.6
O=C(Nc1sccc1C(=O)NCc1ccco1)c1cccnc1	i	0.0
Cc1nn(C)c(C)c1S(=O)(=O)N1CCC(C(=O)NC2CCCCC2)CC1	/	-0.3
O=C(NCc1ccccc1)c1cc(-c2cccc(O)c2)on1	/	-2.2
O=C(NCC1COc2ccccc2O1)C1C2C=CC3(CN(Cc4ccccc4Cl)C(=O)C13)O2 (stereo unspecified)	/	-1.2
O=CN1CC(=O)N(c2ccccc2)c2c([nH]c3ccccc23)C1	/	-2.1
Cc1cc(C)nc(SCc2nnc(SCc3ccccc3Cl)o2)n1	i	3.0
CC(=O)O[C@H]1C[C@@H]2CC[C@@H]3[C@H](CC[C@@]4(C)[C@H]3C[C@H]([N+]3(C)CCCCC3)[C@@H]4OC(C)=O)[C@@]2(C)C[C@@H]1[N+]1(C)CCCCC1	i	-0.7

Entries of single compounds from above. Order of values: VCAM-1 up	Proteasome disasm
Shown for COC(=O)c1ccc(CSc2ncnc3c2oc2ccccc23)o1 : /	-0.7
Shown for O=C(CCN1C(=O)COc2ccccc21)NCCCN1CCN(c2ccccc2F)CC1 : i	-1.9
Shown for CCOC(=O)c1ccc(NC2OC(=O)c3ccccc32)cc1 (stereo unspecified) : i	-1.1
Shown for CC(=O)Nc1ccc(N2CCN(Cc3ccccc3F)CC2)cc1 : i	-1.6
Shown for COc1ccc(Cc2nc(-c3ccc(Br)cc3)no2)cc1 : i	0.5
